Rce1 inhib: yeast Ras-converting enzyme inhibition; calls only; 0.27% of 290,000 active; yeast membranes, quenched prenylated peptide cleavage fluorescence; Q03530; AID 2563;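 active = fall in fluorescence gain of 50% or more versus controls, with final raw signal at or below 3038400; inconclusive = same 50% fall but final raw signal above 3038400; inactive = fall in fluorescence gain under 50%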;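 also: plate controls were neutral control wells for no effect and wells lacking membranes for full effect; tested at 10 µM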
eIF4H inh: inhibitors of RNA binding by human eIF4H | 0.94% of 290,000 active | inhibition, % at 35 µM | AID 2012 | eIF4H fluorescence polarization binding assay;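 active = 50% or more with normal probe brightness, or confirmed in later tests; inconclusive = above 50% with abnormal brightness, or retests that disagree; inactive = below 50% or failed in later tests; about a fifth of its hits are not listed in these tables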;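 also: calls also rest on retests at 20 µM and on dose response follow-up; 0% = protein and probe with vehicle and 100% = probe without protein; strong numbers were not always called active; many hits fall short of the cut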
UUG fidelity: modulators of start codon recognition fidelity in yeast. S. cerevisiae UUG-firefly luciferase reporter, luminescence/redox ratio. activity score, % at 18.7 µM. 0.13% of 350,000 active;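 active = replicate mean at a twofold rise or more, about +100% in these data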;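 also: firefly luciferase made from a UUG start codon reports start codon fidelity; reporter light over untreated wells divided by growth signal over untreated wells; some hits fall short of that in this replicate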
Env fusion inh: HIV envelope-mediated fusion inhibition | HeLa-JRFL Env/CEM21 cell fusion, luciferase | inhibition, % at 12.3 µM | 1.1% of 360,000 active;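 active = mean replicate inhibition score of at least 50 and every replicate individually at or above 50; inconclusive = only one of the two criteria met; inactive = mean below 50 and not all replicates reaching 50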;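 also: 0% = plate neutral controls and 100% = maraviroc near 300 nM; one replicate is shown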
MT1-MMP act inh: inhibitors of human MT1-MMP activation | P50281 | HT1080 RFP-PRO-GFP cells, GFP/RFP ratio fluorescence, overnight; percent of plate control window, DMSO zero | GFP/RFP ratio change, % at 20 µM | 0.061% of 360,000 active | AID 651647;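 active = GFP/RFP ratio change of at least 30% with cell ATP level not reduced by more than half and red fluorescence within 50% of control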; also: strong numbers were not always called active
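Assay system: RFP-PRO-GFP reporter HT1080 cells; read-out basis: GFP/RFP fluorescence ratio; benchmarks: DMSO wells and RFP-L50D-GFP cells; doses: 20 µM single dose, 1% DMSO; schedule: overnight cell settling, then overnight compound exposure, 37 °C, 5% CO2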
CSC inhib: blocks cancer stem cells. cancer stem cell-like cells viability, luminescence. inhibition, % at 7.5 µM. 1.1% of 300,000 active. AID 2717;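 active = mean at 75% or more and at least half the replicates too; inconclusive = mean and replicates disagree; tested in HMLE shEcad cells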;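 also: 0% = median of negative and 100% = median of positive control wells; the first replicate is given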
PABP FP inh: blocks human PABP binding to poly(A) RNA | 1% of 290,000 active | P11940 | fluorescence polarization | inhibition, % at 35 µM;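 active = 50% or more with normal probe brightness, or confirmed in later tests; inconclusive = above 50% with abnormal brightness, or retests that disagree; inactive = below 50% or failed in later tests; about a fifth of its hits are not listed in these tables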;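 also: calls also rest on retests at 20 µM and on dose response follow-up; controls were probe without protein and protein plus probe with vehicle; some compounds called inactive have numbers as strong as hits; many hits fall short of the cut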
Target sequence (P11940 whole entry, looked up): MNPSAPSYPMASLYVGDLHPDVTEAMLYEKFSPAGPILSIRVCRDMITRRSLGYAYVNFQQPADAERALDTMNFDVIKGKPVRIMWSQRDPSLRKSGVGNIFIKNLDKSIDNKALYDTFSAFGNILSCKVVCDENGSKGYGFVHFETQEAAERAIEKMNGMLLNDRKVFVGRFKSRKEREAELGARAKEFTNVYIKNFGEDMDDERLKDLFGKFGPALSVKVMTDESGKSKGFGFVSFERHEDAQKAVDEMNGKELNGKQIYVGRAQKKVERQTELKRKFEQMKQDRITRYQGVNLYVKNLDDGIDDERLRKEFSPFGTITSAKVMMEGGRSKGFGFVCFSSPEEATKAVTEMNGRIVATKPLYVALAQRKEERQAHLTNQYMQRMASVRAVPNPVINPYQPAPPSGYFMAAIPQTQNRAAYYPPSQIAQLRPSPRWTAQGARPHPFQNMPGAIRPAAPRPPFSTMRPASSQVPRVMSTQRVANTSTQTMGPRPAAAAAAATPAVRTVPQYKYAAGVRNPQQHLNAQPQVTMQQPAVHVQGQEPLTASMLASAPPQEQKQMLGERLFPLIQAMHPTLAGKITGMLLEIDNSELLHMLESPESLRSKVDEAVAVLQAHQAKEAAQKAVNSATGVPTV
MT1-MMP act inh RFP: second read-out of MT1-MMP act inh, no call of its own (marks repeat the call); RFP signal change, %; measured here: RFP expression control read;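 0 = vehicle wells; hits needed this value within 50% of zero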
Starred values were filed as active, the others as inactive; i = inactive; ? = inconclusive; / = no result given.

SMILES | Rce1 inhib | eIF4H inh | UUG fidelity | Env fusion inh | MT1-MMP act inh | MT1-MMP act inh RFP | CSC inhib | PABP FP inh
CC1=NN(c2ccccc2)C(=O)/C1=C/c1cccs1 | i | 7 | / | / | -1 | 3 | -1 | 4
O=C(COc1ncnc2sccc12)Nc1cccc(S(=O)(=O)N2CCCC2)c1 | i | 0 | -11 | 21 | 1 | -3 | / | 2
Cc1cc(C)nc(NS(=O)(=O)c2ccc(NC(=O)c3cc4c(=O)n5cccc(C)c5nc4n3C)cc2)n1 | i | 6 | -11 | / | -3 | -3 | -3 | 4
Cc1ccc(NC(N)=S)cc1C | i | -16 | -17 | -6 | 5 | 6 | -13 | 3
CC(C)(C)NCCOc1ccc2ccccc2c1 | i | 2 | / | 4 | 0 | 5 | -3 | 7
COc1ccccc1OCCCCN1CCCCC1 | i | 7 | -17 | 7 | 3 | 3 | 3 | -3
COC(=O)c1ccccc1NC(=O)c1ccc(COc2cc(C)cc(C)c2)o1 | i | -9 | -9 | / | 1 | 1 | 15 | 11
Cc1ccc(NC(=O)CCC(=O)OCC(=O)c2ccc(Oc3ccc([N+](=O)[O-])cc3)cc2)cc1C | i | -13 | / | -74 | -2 | 6 | -4 | -2
COc1ccccc1N(C)S(=O)(=O)c1ccc(C(=O)OCC(=O)N(C)c2ccccc2)cc1 | i | 0 | 19 | -4 | -2 | -2 | 0 | -2
Cc1c(C(=O)OCC(=O)NCc2ccco2)oc2ccccc12 | / | / | -10 | / | -2 | -4 | -6 | /
CC(C(=O)OCC(=O)N1CCCCC1)N1C(=O)c2ccccc2C1=O (stereo unspecified) | / | / | -1 | / | -5 | 1 | -32 | /
Cn1c(=O)n(C)c2cc(/C=N/NC(=O)c3ccc(Cl)cc3Cl)ccc21 | i | 3 | 12 | -9 | 11 | 6 | -19 | 4
Cc1cnc(C)c(Nc2nc(C(N)CCc3ccccc3)cs2)n1 (stereo unspecified) | / | / | -15 | 3 | 0 | -2 | / | /
C=CCn1c(-c2csc3c2CCC(C)C3)n[nH]c1=S (stereo unspecified) | i | 10 | / | -44 | 2 | -7 | -20 | -7
CSCC[C@H](NC(=O)OC(C)(C)C)C(=O)N/N=C/c1cc2ccc(C)cc2nc1Cl | i | -5 | / | 4 | -4 | -2 | -7 | 3
CCOc1cc(CNc2ccc(S(N)(=O)=O)cc2)cc(Cl)c1OC | i | 1 | / | / | 12 | 2 | -6 | 1
Cc1sc2nc(C(C)C)nc(SCC(=O)N3CCOCC3)c2c1C | i | 5 | -16 | 0 | 2 | -3 | 8 | 2
CCOC(=O)Cc1csc(NC(=O)/C=C\c2ccccc2Cl)n1 | i | -8 | / | -10 | -16 | -19 | 5 | 1
Cc1cc(C)cc(C(O)c2ncc(-c3ccccc3C(F)(F)F)[nH]2)c1 (stereo unspecified) | / | / | -23 | -19 | 3 | -2 | / | /
COc1cc(C2C(C(=O)c3cc4ccccc4o3)=C(O)C(=O)N2CCN2CCOCC2)ccc1OCCC(C)C (stereo unspecified) | i | -10 | 19 | / | -3 | 2 | / | 0
CCOC(=O)c1nn(-c2ccccc2)c(=O)cc1OCC(=O)Nc1cc(C)ccc1OC | i | / | -10 | / | -1 | -2 | 9 | /
CCOC(=O)c1sc2nc(CC(=O)OC)nc(NCC(=O)OC)c2c1C | i | 0 | -13 | / | 4 | 0 | -11 | 14
CC(C)(C)c1ccc(C(O)c2ncc(-c3ccc(F)cc3)[nH]2)cc1 (stereo unspecified) | / | / | -7 | -10 | 1 | -8 | / | /
CCN(C(=O)c1ccc2c(=O)n3c(nc2c1)CCCCC3)c1ccccc1C | i | -5 | 1 | 11 | -1 | -4 | -17 | 4
CC(C)(C)n1nnnc1C(c1cccs1)N1CCCc2ccccc21 (stereo unspecified) | i | 0 | 0 | / | -16 | -15 | 11 | 1

One compound at a time, from the list above. Values in the order: Rce1 inhib, eIF4H inh, UUG fidelity, Env fusion inh, MT1-MMP act inh, MT1-MMP act inh RFP, CSC inhib, PABP FP inh
Record of Cc1cc(C)cc(C(O)c2ncc(-c3ccccc3C(F)(F)F)[nH]2)c1 (stereo unspecified) → /, /, -23, -19, 3, -2, /, /
Record of COc1ccccc1N(C)S(=O)(=O)c1ccc(C(=O)OCC(=O)N(C)c2ccccc2)cc1 → i, 0, 19, -4, -2, -2, 0, -2

Back to the main list, repeating the five entries before the break.
SMILES | Rce1 inhib | eIF4H inh | UUG fidelity | Env fusion inh | MT1-MMP act inh | MT1-MMP act inh RFP | CSC inhib | PABP FP inh
CCOC(=O)c1nn(-c2ccccc2)c(=O)cc1OCC(=O)Nc1cc(C)ccc1OC | i | / | -10 | / | -1 | -2 | 9 | /
CCOC(=O)c1sc2nc(CC(=O)OC)nc(NCC(=O)OC)c2c1C | i | 0 | -13 | / | 4 | 0 | -11 | 14
CC(C)(C)c1ccc(C(O)c2ncc(-c3ccc(F)cc3)[nH]2)cc1 (stereo unspecified) | / | / | -7 | -10 | 1 | -8 | / | /
CCN(C(=O)c1ccc2c(=O)n3c(nc2c1)CCCCC3)c1ccccc1C | i | -5 | 1 | 11 | -1 | -4 | -17 | 4
CC(C)(C)n1nnnc1C(c1cccs1)N1CCCc2ccccc21 (stereo unspecified) | i | 0 | 0 | / | -16 | -15 | 11 | 1
CCCCNC(=O)C1CCN(Cc2ccc(OCc3ccccc3)c(OC)c2)CC1 | i | 1 | 17 | -5 | 4 | -1 | 7 | 2
COC(=O)c1ccc(C(=O)Nc2ccc(F)cc2)cc1 | / | / | -22 | -64 | 5 | -12 | -5 | /
COc1ccc(S(=O)(=O)NC(C)C)cc1C(=O)N1CCOCC1 | i | 2 | / | 12 | -2 | 3 | -14 | 2
CC(Cc1c[nH]c2ccccc12)C(=O)N1CCN(c2ccccc2F)CC1 (stereo unspecified) | i | -4 | -4 | -8 | 0 | 2 | / | -1
O=[N+]([O-])c1ccccc1S(=O)(=O)Nc1ccc(S(=O)(=O)Nc2nccs2)cc1 | i | -2 | -15 | -12 | 1 | 2 | -12 | 4
Cc1ccc(S(=O)(=O)CCC(=O)OCC(=O)c2c[nH]c3ccccc23)cc1 | i | 0 | / | -7 | 0 | 4 | / | 2
Cc1cccc(N2C(=O)CCC2=O)c1 | i | -5 | -7 | -37 | -2 | 3 | -6 | -1
Cc1c(C(=O)NCCC2=CCCCC2)cccc1[N+](=O)[O-] | i | -7 | -12 | / | 4 | 5 | 17 | -3
CCN(CC)C(=S)SCC(=O)Nc1nc(-c2ccccc2)c(-c2ccccc2)o1 | i | 2 | / | 25 | -4 | -7 | 10 | -17
CCCn1c(-c2nonc2N)nc2ccccc21 | i | -1 | -23 | -27 | -18 | -9 | -4 | -3
O=C1c2ccccc2C(Nc2ccc3c(c2)OCCO3)N1c1ccccn1 (stereo unspecified) | i | 4 | -10 | 5 | 0 | 2 | / | -12
CCCCOc1ccc(CSC(=N)N)cc1[N+](=O)[O-] | i | -10 | / | / | -2 | 1 | 72 | -4
COc1ccc(NC(=O)CC2C(=O)NC3CCCCC3N2C(=O)c2ccc(F)cc2)cc1 (stereo unspecified) | i | 4 | -5 | 2 | -2 | 0 | 2 | 5
CC(C)=CCN1CCN(Cc2coc3ccc(C)cc3c2=O)CC1CCO (stereo unspecified) | i | 3 | 3 | 4 | 2 | 3 | 15 | 5
CCOc1ccc(OCCCN(C)C)cc1 | i | 3 | / | -56 | 4 | 3 | -11 | 24
CC(C)NC(=O)c1nc2ccccc2s1 | i | -10 | -8 | -53 | 1 | 0 | -1 | -2
CC(=O)c1ccc(NC(=O)CSC2=NS(=O)(=O)c3cc(Cl)ccc3N2)cc1 | i | / | -9 | i | 0 | 1 | 8 | /
O=C(Cn1ncc2c3ccccc3n(Cc3ccccc3)c2c1=O)NC1CCCC1 | i | -6 | 1 | -9 | 1 | 1 | -5 | 5
O=C(NCc1cnn(-c2ccccc2)c1)C1CCC(=O)N(C2CC2)C1 (stereo unspecified) | i | -11 | -7 | 4 | 1 | -2 | -13 | -1
CCOC(=O)C1=C(CC)OC(N)=C(C#N)C1c1ccsc1 (stereo unspecified) | i | 17 | -3 | -4 | 0 | 5 | -4 | 0
Cc1c(OCC(=O)NCCCN2CCCC2=O)ccc2c3c(c(=O)oc12)CCCC3 | i | -7 | 5 | 0 | 0 | -3 | -4 | -5
Cc1ccc(NC2=C(Cl)C(=O)OC2OC(=O)c2ccc(C)cc2)cc1 (stereo unspecified) | i | -6 | / | 3 | -1 | 2 | -5 | 1
CCC(=O)c1ccc(OCC(=O)NCC2COc3ccccc3O2)cc1 (stereo unspecified) | / | / | 8 | -7 | 3 | 5 | -6 | /
Nc1nonc1-n1nnc(C(=O)N/N=C/c2ccncc2)c1CSc1ccc(Cl)cc1 | i | -11 | -15 | 18 | 2 | -7 | 10 | -4
Brc1ccc(/C=N/Nc2nc3ccccc3o2)cc1 | i | -11 | -6 | -84 | 4 | 3 | 20 | 1
(listing goes on)
SMILES | Rce1 inhib | eIF4H inh | UUG fidelity | Env fusion inh | MT1-MMP act inh | MT1-MMP act inh RFP | CSC inhib | PABP FP inh
COc1ccc(O)c(/C=N/Nc2nc(C)cc(-c3ccccc3)n2)c1 | i | / | -27 | -42 | 3 | -5 | 30 | /
O=C(N/C(=C/c1ccc([N+](=O)[O-])cc1)C(=O)N1CCCC1)c1ccccc1 | i | 11 | -24 | -24 | -1 | 0 | -5 | 11
O=C(CN1CCN(Cc2ccccc2)CC1)Nc1ccc(F)c(F)c1 | i | 11 | -23 | 1 | 0 | 2 | 4 | -13
O=C(Nc1cc(Cl)ccc1Oc1ccccc1)C1=COCCO1 | i | / | / | -17 | 0 | -3 | 12 | /
COc1cc(/C=N/NC(=O)CSCc2ccc([N+](=O)[O-])cc2)cc(OC)c1OC | / | -9 | -1 | 17 | 0 | 0 | 1 | -1
CCNC(=S)Nn1cnc2ccccc21 | i | -5 | -18 | 10 | -1 | 2 | 1 | 7
CCOP(=O)(OCC)C1NC(=O)N(c2ccccc2)C1=O (stereo unspecified) | i | -6 | -14 | -7 | -15 | -5 | -8 | 2
CCCCOc1ccc(S(=O)(=O)N2CCCCCC2)cc1 | i | -1 | -2 | / | 0 | -3 | -2 | -2
COc1cccc2cc(C(=O)NCc3ccccc3)c(=N)oc12 | i | -2 | -10 | -6 | 3 | 0 | -1 | -4
COc1cccc(C(=O)NC2CCN(CC(=O)Nc3cccc(C)c3C)CC2)c1 | / | -2 | / | 16 | 3 | -3 | -6 | -4
O=C(Cc1ccccc1)NNC1=NS(=O)(=O)c2ccccc21 | i | -5 | -20 | -19 | -6 | 2 | -10 | -9
CCOC(=O)N1CCC(N2CCCC(C(=O)c3ccccc3OC)C2)CC1 (stereo unspecified) | i | -2 | / | 17 | 0 | 1 | -16 | -8
COCCN(CCOC)Cc1c(O)ccc2c3c(c(=O)oc12)CCC3 | ? | -8 | -11 | -28 | 1 | 4 | -5 | -2
COc1cccc(NC(=O)c2cc(Cl)nnc2Cl)c1 | i | -2 | / | 9 | -10 | -6 | 16 | -20
Cc1c(CC(=O)NC(C)C)c(=O)oc2cc3c(cc12)CCC(C)(C)O3 | i | 0 | -8 | -16 | 1 | -1 | -11 | 2
O=C(NCC(=O)N1CCCC1)c1ccc(Br)cc1 | i | 13 | -18 | -4 | 0 | 0 | 0 | 4

High-throughput results from PubChem BioAssay.
